High-throughput results: PubChem, National Center for Advancing Translational Sciences (NCATS)
miR-21 reporter: qHTS Assay for Modulators of miRNAs and/orActivators of miR-21; Potency, µM (series often up to 38.3 µM), for the others: at the highest dose reporter change, positive = more light; HeLa miR-21 FLuc reporter, luciferase, 48 h; 340,000 tested, under 10 active; AID 2288, 2010; active = well fitted rising curve with a large enough effect; inconclusive = small, poorly fitted or top-dose-only effect; inactive = no such curve, though single readings can be large or run the other way;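 note: % of control where 0% means no effect; miR-21 action dims this reporter so a rising signal means less miR-21 action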
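HeLa cells endogenously expressing miR-21, stably carrying CMV-driven firefly luciferase with a downstream miR-21 binding site, 2000 cells/well. Titrations up to approximately 40 uM, 48 hours; luciferase luminescence read.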
Rango complex inh: qHTS Assay for Inhibitors of Rango (Ran-regulated importin-beta cargo) - Importin beta complex formation | Rango CFP/YFP FRET sensor + importin beta, 45 min | Potency, µM (highest dose often 92.2 µM), inactives show top-dose inhibition of complex formation | actives 0.031% (n = 340,000) | AID 540263, 2011; active = rising FRET ratio curve, often small or poorly fitted; inconclusive = mostly compound fluorescence or quenching in the first reads; inactive = flat curves in all reads;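 note: potency is the fitted concentration of half-maximal effect; 0% = DMSO wells and 100% = buffer wells lacking importin beta; nearly all actives have a fitted effect of over 15% in size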
Target sequence (Q14974 whole entry, looked up): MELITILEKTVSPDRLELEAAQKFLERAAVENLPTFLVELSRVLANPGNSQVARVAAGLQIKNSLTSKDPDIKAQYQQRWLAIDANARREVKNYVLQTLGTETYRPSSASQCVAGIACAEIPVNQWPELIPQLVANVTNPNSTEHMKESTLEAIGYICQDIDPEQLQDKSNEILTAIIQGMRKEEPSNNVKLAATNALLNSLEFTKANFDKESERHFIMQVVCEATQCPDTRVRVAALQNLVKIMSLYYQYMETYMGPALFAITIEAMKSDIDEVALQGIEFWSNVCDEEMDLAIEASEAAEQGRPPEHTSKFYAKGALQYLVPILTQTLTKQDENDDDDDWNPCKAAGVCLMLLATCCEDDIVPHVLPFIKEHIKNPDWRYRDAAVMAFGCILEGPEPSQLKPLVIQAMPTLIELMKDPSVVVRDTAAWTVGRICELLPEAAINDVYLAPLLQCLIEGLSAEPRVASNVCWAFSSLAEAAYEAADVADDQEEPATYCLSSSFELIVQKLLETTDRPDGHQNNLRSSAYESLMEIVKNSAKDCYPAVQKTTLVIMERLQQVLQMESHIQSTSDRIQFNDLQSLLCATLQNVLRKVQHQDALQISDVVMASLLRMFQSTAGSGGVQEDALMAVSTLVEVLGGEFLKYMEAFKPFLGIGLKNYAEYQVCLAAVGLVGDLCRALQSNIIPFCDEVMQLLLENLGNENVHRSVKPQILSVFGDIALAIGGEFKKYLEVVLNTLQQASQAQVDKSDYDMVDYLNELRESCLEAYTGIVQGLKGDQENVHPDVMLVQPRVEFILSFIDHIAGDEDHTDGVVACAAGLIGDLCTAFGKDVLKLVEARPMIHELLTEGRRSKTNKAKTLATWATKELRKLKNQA
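Inhibition scored from the CFP 486 nm/YFP 530 nm FRET ratio 45 min after adding 0.125 microM importin beta to 50 nM Rango biosensor preincubated 5 min with compound (room temperature, PBS with DTT, Tween-20, BSA). No-importin wells as positive control.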
GLA inh pH 4.5: qHTS Assay for Inhibitors of Human alpha-Galactosidase at pH 4.5; Alpha-galactosidase A (Homo sapiens), P06280; purified enzyme, 4-MU-alpha-Gal fluorescence, pH 4.5; activity change, negative = inhibition, % at 105 µM; 230,000 tested, under 10 active; inconclusive = small, poorly fitted or top-dose-only inhibition, or a rising curve; inactive = flat fitted curve, though single readings scatter; no compound was filed as active;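 note: 0% = full activity with enzyme and -100% = basal without enzyme; dose as in the result columns while the protocol names 77 µM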
Rango dissoc inh: qHTS Assay for Inhibitors of RanGTP induced Rango (Ran-regulated importin-beta cargo) - Importin beta complex dissociation; Biochemical FRET Rango-importin beta, RanGTP-induced dissociation; Potency, µM (titrated, usually from 46.1 µM), for the others: top-dose activity change, negative = inhibition; actives 0.071% (n = 340,000); active means falling FRET ratio curve, often poorly fitted, with flat reads before Ran was added; inconclusive means other falling curves, or compound fluorescence or quenching; inactive means flat or rising ratio curve;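 note: potency is the fitted concentration of half-maximal effect; % of control where 0% means no effect; nearly all actives have a fitted effect of over 45% in size; -100% = wells without RanGTP and RCC1; the record marks most hits as doubtful in a second field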
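Compounds preincubate 5 min with complex of recombinant Rango and importin beta in PBS with 1 mM DTT. Ran (0.6 uM) loaded with 2 mM GTP plus 0.2 uM RCC1 starts dissociation; FRET is recorded 45 min later.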
* marks the source's active call; other numbers are inactive results; ? = inconclusive; . = no result given. An excerpt. The share of hits here may be higher or lower than overall.

Compound	miR-21 reporter	Rango complex inh	GLA inh pH 4.5	Rango dissoc inh
CN(Cc1ccon1)Cc1cn(C)nc1-c1ccc2c(c1)OCCO2	0%	?	10	-7%
CC(C)C(=O)Nc1nnc(SCc2cccc(F)c2)s1	-35%	?	8	1%
COc1ccc2c(c1)C(c1ccc(C)o1)=NNC(c1cccnc1)=N2	0%	0.2%	?	2%
CC(=O)Nc1nc(C)c(Oc2ccc(Cl)cc2Cl)c(=O)[nH]1	-9%	0.1%	10	-11%
Cc1c(NS(=O)(=O)c2cccc(C(=O)N3CCC(C)CC3)c2)c(=O)n(-c2ccccc2)n1C	.	8.2%	.	-18%
Cc1cc(C)n(CCNC(=O)CC2C(=O)NCCN2Cc2ccccc2C(F)(F)F)n1 (configuration not stated)	-1%	2.4%	-18	1%
CN(C)S(=O)(=O)c1ccc(NC=O)cc1	-1%	-1.2%	7	-10%
Cc1ccc(-n2c(C)nnc2SCC(=O)N2CCOCC2)cc1	1%	0.8%	.	16%
O=C(CSCc1cccc(Cl)c1)N/N=C/c1ccc(OCC(=O)N2CCCCC2)cc1	13%	-3.9%	2	-12%
COc1cc(C(=O)OCc2ccc(C)cc2)cc(NC(=O)c2cccs2)c1OC	-4%	-3.2%	-1	-20%
CC1(C)CC(=O)C2=C(C1)N(Cc1ccco1)C(=O)C2(NC(=O)c1cccnc1)C(F)(F)F (configuration not stated)	-3%	2.5%	-3	-10%
CNC(=O)COC(=O)c1ccc(NC(=O)CC#N)cc1	-1%	?	2	-28%
CCOc1ccccc1NC(=O)/C(C#N)=C/c1cccnc1	-4%	-5.2%	.	-3%
Cc1ccc(N2C(=O)CC(Sc3ncccc3C(=O)O)C2=O)cc1 (configuration not stated)	-5%	3.2%	4	0%
C=CCOC(=O)C1=C(C)NC(=O)NC1c1cc2c(cc1Br)OCO2 (configuration not stated)	0%	3.3%	.	-24%
CCN1C[C@@H]2[C@@H]3C(=O)N(C)C(=O)[C@@H]3[C@](Cc3ccccc3)(C1=O)N2C(=O)c1ccc(F)cc1	.	-4.6%	.	0%
O=C1OC/C(=C(/O)c2ccc(Cl)cc2)C1=O	-11%	-1.0%	.	-7%
COc1ccc(OC)c(C(C)NC(=O)Nc2ccccc2)c1 (configuration not stated)	-2%	-5.5%	-4	-8%
CC(C)=CCC/C(C)=C/C(N)=O	4%	-2.4%	-1	3%
CCCOc1ccc(C(=O)CCC(=O)OCC(=O)Nc2ccc(OCC)cc2)cc1	-1%	.	7	.
Cc1cc(C)c(C(N)=O)c(Nc2ccc3c(c2)OCCO3)n1	-8%	-3.5%	-3	-3%
Cc1ccc(OCc2nnc(SCC(=O)c3ccccc3)n2-c2ccccc2)cc1	-20%	-2.3%	-8	-6%
O=C(CN1C(=O)NC2(CCCCCC2)C1=O)NCc1cccs1	1%	-0.7%	-7	-15%
O=C(c1ccc([N+](=O)[O-])cc1)N1CCC(n2nnc3cc(F)ccc32)CC1	-1%	1.3%	-1	5%
CC(C)OCCCNC(=O)c1cc(S(=O)(=O)N2CCCCC2)c[nH]1	1%	-0.7%	.	-3%
CCn1c(CNC(=O)COC)nc2ccccc21	-1%	0.1%	9	1%
COc1cccc(NC(=O)CN2CCN(C(=O)c3ccco3)CC2)c1	-7%	2.6%	.	3%
O=C(CCc1c[nH]c2ccccc12)NC1CC1	-2%	-0.3%	-3	21%
COc1ccc(C(=O)NNC(=O)C(Cc2ccc(O)cc2)NC(=O)c2ccccc2NC(=O)c2ccc(OC)cc2)cc1 (configuration not stated)	0%	0.6%	-1	-10%
COCCN(Cc1cc2ccccc2[nH]c1=O)C(=O)c1ccccc1OC	-2%	1.2%	5	1%
CCOC(=O)c1cc2c(s1)-c1ccccc1CC2	-34%	-5.3%	12	-17%
Cc1ccc(C)c(CNS(=O)(=O)c2c(C)[nH]c(C)c2C(=O)N2CCCCC2)c1	0%	2.9%	.	7%
O=S(=O)(c1ccc(-c2nnc(SCc3ccccc3)o2)cc1)N1CCCC1	-4%	3.4%	5	15%
C/C=C(/C)C(=O)O[C@@H]1c2c(ccc3ccc(=O)oc23)O[C@@H]1C(C)(C)OC(=O)/C(C)=C\C	15%	-5.1%	-3	3%
CCOC(=O)Cn1nc(/C=C/c2ccc(OC)cc2)ccc1=O	.	4.5%	.	14%
Cc1ccc(C)c(NC(=O)CSc2nnc(CNC(=O)c3cccs3)o2)c1	-1%	-1.8%	3	-1%
CCOC(=O)C1CCN(C(=O)C2(NC(=O)NC3CCCCC3)CCCCC2)CC1	0%	3.4%	-17	1%
COc1cc(C(=O)N(Cc2cc3cc(C)ccc3[nH]c2=O)CC2CCCO2)cc(OC)c1OC (configuration not stated)	-1%	5.1%	0	-9%
Cc1nc(NC(=O)/C=C/c2ccco2)sc1C	-14%	0.5%	-1	-13%
CCOC(=O)c1cc(-c2ccccc2)n[nH]1	3%	-3.8%	1	-11%
Cc1cc(C)cc(N2C(=O)C=CC2=O)c1	.	4.4%	.	0%
Brc1ccccc1/C=N/Nc1nc2ccccc2o1	-54%	-0.7%	.	-7%
C[C@@H]1CN(C(=O)c2nc3ccc(Cl)cn3c2CNCC[C@@H]2C[C@@H]3C=C[C@H]2C3)C[C@H](C)O1	0%	3.2%	2	-6%
Cc1ccc(/C=N/N(C)S(=O)(=O)c2ccc(C)cc2)cc1	9%	-0.7%	.	-10%
Cc1ccc(N2C(=O)N(C(C)C)C(C)(C)CC2(C)O)cc1 (configuration not stated)	6%	-1.0%	2	-8%
Cc1ccc(OCc2nnc(SCc3cc(=O)[nH]c4ccccc34)o2)cc1	-16%	3.6%	4	-6%
CCc1nnc(NC(=O)CSc2nnc(-c3cc4ccccc4cc3O)n2CC)s1	-4%	-2.4%	7	-11%
CCCCCOCC(O)CCC(=O)NN (configuration not stated)	-4%	1.7%	-4	12%
CCOC(=O)C1CCN(C(=O)c2cccnc2Oc2ccccc2)CC1	-8%	-1.4%	2	-8%
Cc1ccc(C(=O)NC2CCN(S(=O)(=O)c3ccc(F)cc3)CC2)cc1	-5%	1.6%	.	0%
Cc1cc(C)cc(-n2ncc3c2CCCC3NC(=O)CN2CCCC2=O)c1 (configuration not stated)	1%	-6.5%	.	-3%
COc1cccc(CNC(=O)C2=Cc3cccc(OC)c3OC2)c1	-1%	-0.3%	10	-10%
Cc1csc(NC(=S)NC(=O)c2ccccc2)n1	-64%	-0.6%	.	-16%
C=CCOc1ccc(/C=C2\SC(=S)N(C(C(=O)O)c3ccccc3)C2=O)cc1 (configuration not stated)	3%	-3.2%	-8	-15%
c1ccc(N2CCN(Cc3nc4ccccc4[nH]3)CC2)nc1	-6%	-1.1%	-3	-24%
COCCn1c(-c2cccc([N+](=O)[O-])c2)nc2c1c(=O)[nH]c(=O)n2Cc1ccccc1	-26%	-3.7%	0	-14%
Cc1ccc(N2C(N)=NC(N)=NC23CCCC3)c(C)c1	-2%	2.4%	7	-9%
C=CCc1cc(C=O)cc(OC)c1OCc1c(Cl)cccc1Cl	0%	0.5%	10	-12%
COc1ccc(NC(=O)CSc2nc3ccccc3c(=O)n2CCC(=O)N2CCCCC2)cc1	2%	0.5%	-10	-1%
COc1cc(C(=O)Oc2ccccc2/C=N/NC(=O)c2ccc(C)c(Cl)c2)cc(OC)c1OC	-3%	3.0%	7	30%

Later entries:
Compound	miR-21 reporter	Rango complex inh	GLA inh pH 4.5	Rango dissoc inh
O=[N+]([O-])c1ccc(C2Nc3cccc4cccc(c34)N2)cc1	-1%	5.1%	-2	4%
CCc1ccc(-c2nc(NC(=S)NC(=O)c3cccs3)sc2C)cc1	-1%	-6.1%	-6	4%
Cc1ccc(C)c(NC(=S)NC(NC(=O)Cc2ccccc2)C(Cl)(Cl)Cl)c1 (configuration not stated)	-2%	4.2%	7	1%
COc1ccc(-c2nnc(SCC#N)o2)cc1	-27%	4.4%	0	4%
Cc1ccc(S(=O)(=O)NCCNc2ccc([N+](=O)[O-])cc2C(F)(F)F)cc1	17%	-4.8%	-8	19%
Cc1ccc(N(C(=O)CCC(=O)Nc2ccccn2)C(C(=O)NC(C)C)c2ccc(F)cc2)cc1 (configuration not stated)	3%	5.2%	.	-3%
Cc1ccc(C(=O)NNC(=O)C(C)Oc2ccccc2F)cc1S(=O)(=O)N1CCOCC1 (configuration not stated)	.	0.7%	.	20%
CC(C)CN(CC(C)C)C(=O)Nc1cccc([N+](=O)[O-])c1	-1%	5.7%	-8	0%
Cc1cc(C(=O)Cn2nc(C(=O)O)c3ccccc3c2=O)c(C)n1-c1ccccc1	-41%	4.2%	-12	-7%
O=[N+]([O-])c1ccc(O)c(CN2CCCCCC2)c1	-6%	-0.9%	.	5%
Cc1cccc(-n2c(-c3csc(C)c3C)n[nH]c2=S)c1	-20%	-0.5%	2	1%
O=c1c2ccccc2nc(CSc2nnnn2-c2ccccc2)n1-c1ccccc1Cl	-1%	-0.7%	-6	15%
COc1cccc(CNC(=O)CCC(=O)N2CC(C)Oc3ccccc32)c1OC (configuration not stated)	3%	0.2%	.	-4%
O=C(O)c1ccc(NC(=O)c2ccccc2NC(=O)c2cccc(F)c2)cc1	-5%	3.6%	.	-14%
CCOc1ccc(CCNC(=O)c2ccc(OCc3c(C)noc3C)cc2)cc1OCC	.	0.1%	.	-2%

Some of the entries so far, as labelled records:
Cc1cccc(-n2c(-c3csc(C)c3C)n[nH]c2=S)c1
- miR-21 reporter: -20%
- Rango complex inh: -0.5%
- GLA inh pH 4.5: 2
- Rango dissoc inh: 1%

Cc1ccc(C(=O)NNC(=O)C(C)Oc2ccccc2F)cc1S(=O)(=O)N1CCOCC1 (configuration not stated)
- miR-21 reporter: .
- Rango complex inh: 0.7%
- GLA inh pH 4.5: .
- Rango dissoc inh: 20%

Cc1cc(C(=O)Cn2nc(C(=O)O)c3ccccc3c2=O)c(C)n1-c1ccccc1
- miR-21 reporter: -41%
- Rango complex inh: 4.2%
- GLA inh pH 4.5: -12
- Rango dissoc inh: -7%

O=[N+]([O-])c1ccc(O)c(CN2CCCCCC2)c1
- miR-21 reporter: -6%
- Rango complex inh: -0.9%
- GLA inh pH 4.5: .
- Rango dissoc inh: 5%

Additional structures
Compound	miR-21 reporter	Rango complex inh	GLA inh pH 4.5	Rango dissoc inh
O=C(Nc1cccc(Cl)c1N1CCCCC1)c1ccc2c(c1)OCCO2	2%	-0.6%	0	-1%
Cc1ccc(-c2nnc(N3CCN(C(=O)c4ccco4)CC3)c3ccccc23)cc1	23%	-1.4%	7	6%
Cc1c(Cl)cccc1-n1ccnc1SCC(=O)O	-5%	-4.5%	7	-14%
CC(O)CNc1nc2c(c(=O)n(Cc3ccccc3)c(=O)n2C)n1C (configuration not stated)	-4%	-0.7%	.	-7%
CC(=O)NCCCC(=O)NN1C(=S)N(Cc2ccccc2)C(=O)C1CC(=O)Nc1cccc(C)c1 (configuration not stated)	-2%	2.3%	0	-4%
O=S(=O)(c1ccc(Oc2ccc(Br)cc2F)nc1)N1CCCCC1	4%	4.6%	-4	19%
CCN(CC)S(=O)(=O)c1ccc2c(c1)N(CC(=O)NCc1ccccn1)C(=O)CO2	-4%	8.9%	5	1%
Cn1c(O)c(C=NC(CC(N)=O)C(=O)O)c(=O)n(C)c1=O (configuration not stated)	-4%	.	0	.
Cc1cc(C)cc(NC(=O)c2ccc(CNc3c(N4CCCC4)c(=O)c3=O)cc2)c1	3%	0.6%	-5	2%
COc1cc(/C=C/C(=O)OCC(=O)N(CC(C)C)c2c(N)n(Cc3ccccc3)c(=O)[nH]c2=O)ccc1O	.	?	.	?
O=C(CSc1ccc(Br)cc1)Nc1ccc(N2CCOCC2)cc1	.	?	.	2%
CCCOc1c(Br)cc(/C=N/O)cc1OC	12%	0.2%	-4	0%
CN1C(=O)c2ccccc2N(C)C1c1cccc(O)c1 (configuration not stated)	0%	?	.	-18%
COc1ccc(N2CCN(C(=O)CSc3nnc(-c4cc5ccccc5cc4O)n3C)CC2)cc1	23%	-3.2%	4	2%
